Screens deposited in PubChem by National Center for Advancing Translational Sciences (NCATS).
gsp agonist – qHTS for Agonist of gsp, the Etiologic Mutation Responsible for Fibrous Dysplasia/McCune-Albright Syndrome: qHTS; Potency, µM (titrated, usually from 76.9 µM), without a hit: at the highest dose activation (cAMP increase), actives largely listed as activators; 340,000 compounds, 0.13% hits; gsp mutant cells, cAMP HTRF, 30 min; control for the full effect not named in the record; active = well fitted activation curve with a large enough effect; inconclusive = small, poorly fitted or top-dose-only effect, or another doubt; inactive = no such curve, though single readings can be large or run the other way; cell line not stated here;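 also: phosphodiesterase inhibitor Ro 20-1724 added with compounds to block cAMP breakdown; potency is read from the fitted curve at half-maximal effect; nearly all actives have a fitted effect of over 60% in size; about a fifth of the inactives were tested at one dose only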
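Cells in DMEM/10% FBS with G418 were pretreated with compounds in DMSO plus […] (300 uM stock) for 30 min at 37C. cAMP was measured by HTRF (cAMP-d2 plus anti-cAMP antibody-K) after 30 min at room temperature.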
D2 ag – Beta-Arrestin HTS for Positive Allosteric Modulators of the Human D2 Dopamine Receptor: Agonists. D(2) dopamine receptor (Homo sapiens), P14416. DiscoveRx PathHunter D2 beta-arrestin, luminescence, 90 min; 100% = 57 uM dopamine signal. activation, % (no concentration beside the values). 360,000 compounds, 0.084% hits. AID 624465, 2012; in the data active = activation above about 40%; inconclusive = about 15% to 40%; inactive = below about 15%; also: compound concentration not given in the record; the text of the record calls up to 30% inactive
Target sequence (P14416 whole entry, looked up): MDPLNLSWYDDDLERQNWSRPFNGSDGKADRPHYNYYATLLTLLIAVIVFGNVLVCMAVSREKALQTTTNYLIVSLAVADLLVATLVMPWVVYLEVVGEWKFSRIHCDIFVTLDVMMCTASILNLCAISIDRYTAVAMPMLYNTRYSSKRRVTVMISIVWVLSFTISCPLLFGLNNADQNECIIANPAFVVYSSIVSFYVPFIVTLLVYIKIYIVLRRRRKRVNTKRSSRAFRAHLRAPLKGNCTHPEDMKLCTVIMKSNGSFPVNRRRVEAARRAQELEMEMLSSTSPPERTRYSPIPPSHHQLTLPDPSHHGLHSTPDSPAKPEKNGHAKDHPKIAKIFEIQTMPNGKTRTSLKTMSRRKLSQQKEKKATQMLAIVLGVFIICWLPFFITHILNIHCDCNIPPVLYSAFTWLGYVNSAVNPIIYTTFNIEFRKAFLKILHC
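Agonist mode: compounds alone added to overnight-plated D2 PathHunter cells for 90 min at 37 C, with 57 uM final dopamine (EC100) defining full response. Beta-arrestin recruitment detected by chemiluminescent reagent, read after 1 h at ambient temperature.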
PINK1 expr mod – A Quantitative High throughput Screen to Identify Chemical Modulators of PINK1 Expression. AID 624263, 2012. 410,000 compounds, 0.2% hits. Potency, µM (series often up to 76.6 µM), for inactives: at the top dose activation (PINK1 increase), hits mostly activators. PINK1 immunofluorescence, high-content cytometry, 24 h; active = well fitted activation curve with a large enough effect; inconclusive = small, poorly fitted or top-dose-only effect; inactive = flat fitted curve, though single readings scatter; cell line not stated here;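 also: potency is read from the fitted curve at half-maximal effect; % of control where 0% means no effect; nearly all actives have a fitted effect of over 65% in size; a mitochondrial uncoupler was the plate control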
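Stable cell line treated 24 h with compounds at 5 concentrations (CCCP controls), then fixed and immunostained for PINK1 plus nuclear and cell stains; PINK1 immunofluorescence quantified by laser-scanning microplate cytometry.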
Menin MLL FP FL – qHTS Assay for Inhibitors Targeting the Menin-MLL Interaction in MLL Related Leukemias: Competition With Fluorescein Labeled MLL-derived Peptide; Fluorescence polarization, fluorescein-MLL peptide displacement from menin; FP activity change, % at 61.4 µM; 290,000 tested, under 10 active; inconclusive = falling polarisation curve, or a change in total fluorescence; inactive = total fluorescence flat and polarisation flat or rising; no compound was filed as active; the % refers to the polarisation; negative = inhibition;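 also: % of control where 0% means no effect; inhibitors lower the polarisation; unlabelled MLL peptide was the positive control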
ClpP mod – qHTS Assay for Activators of ClpP; ATP-dependent Clp protease proteolytic subunit (Bacillus subtilis (strain 168)), P80244; purified B. subtilis ClpP, FRET peptide cleavage, 20 min; Potency, µM (series often up to 57.5 µM), without a hit: top-dose activity change, negative = active; 340,000 compounds, 1.9% hits; active = well fitted falling curve with a large enough effect; inconclusive = small, poorly fitted or top-dose-only effect; inactive = no such curve, though single readings can be large or run the other way; also: potency is read from the fitted curve at half-maximal effect; the source files actives as falling curves though it sought activators and does not explain the sign; nearly all actives have a fitted effect of over 65% in size; many hits overshoot -100%
Target sequence (P80244 whole entry, looked up): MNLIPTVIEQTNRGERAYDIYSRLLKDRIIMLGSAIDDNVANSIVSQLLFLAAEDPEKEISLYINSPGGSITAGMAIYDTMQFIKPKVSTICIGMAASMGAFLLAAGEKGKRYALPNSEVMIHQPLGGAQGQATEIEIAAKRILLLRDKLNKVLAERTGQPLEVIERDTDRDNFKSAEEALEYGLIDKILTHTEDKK
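FRET quenching reversal measured ClpP activation: 10 microg/mL B. subtilis ClpP at pH 8 with the FRET-FV decapeptide, read at 430 nm after 320 nm excitation. The 20-min minus 0-min signal was scaled between DMSO/no-enzyme wells and ADEP (5.8 microM final).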
gsp antag – qHTS for Antagonists of gsp, the Etiologic Mutation Responsible for Fibrous Dysplasia/McCune-Albright Syndrome: qHTS; 340,000 compounds, 0.4% hits; gsp-mutant cells, cAMP HTRF, 30 min; control for the full effect not named in the record; Potency, µM (series often up to 76.9 µM), inactives show top-dose activity change, negative = inhibition, usual class: inhibitors; AID 624288, 2012; active = falling curve of any shape with a large fitted effect; inconclusive = falling curve, mostly with a smaller effect; inactive = flat or rising curve; cell line not stated here;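 also: intracellular cAMP measured with PDE inhibitor Ro 20-1724 present during compound exposure; potency is read from the fitted curve at half-maximal effect; % is scaled to controls: 0 for no effect and ±100 for the full control effect; nearly all actives have a fitted effect of over 65% in size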
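Cells in G418 medium, seeded 16-24 h, 37C; buffer exchange to DPBS + 1 mM CaCl2, 0.5 mM MgCl2, 0.05% BSA; cpds in DMSO + […] (300 uM stock), 30 min 37C; HTRF cAMP detection.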
Sfp PPTase inh – qHTS Assay for Inhibitors of Bacillus subtilis Sfp phosphopantetheinyl transferase (PPTase); 4'-phosphopantetheinyl transferase ffp (Bacillus subtilis), Q9F4F7; Biochemical Sfp PPTase activity, qHTS; Potency, µM, for the others: max response, negative = inhibition, hits mostly inhibitors; 310,000 compounds, 3.5% hits; AID 1490, 2009; active = well fitted inhibition curve with a large enough effect; inconclusive = small, poorly fitted or top-dose-only effect, or another doubt; inactive = no such curve, though single readings can be large or run the other way;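 also: the enzyme is Sfp with the accession as filed and its product quenches rhodamine fluorescence; potency is read from the fitted curve at half-maximal effect; 0% = enzyme reaction without inhibitor and -100% = no enzyme wells; top concentration of the series not given in the record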
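Buffer: 50 mM Hepes-Na pH 7.6, 10 mM MgCl2, 0.01% Nonidet P-40, 0.01% BSA. Enzyme 15 nM, pre-exposed to compound 15 min; substrates then added and fluorescence change tracked over 30 min.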
* marks the source's active call; other numbers are inactive results; ? = inconclusive; . = no result given; [ ] = dose if it differs, or a comment. Compounds were not picked by outcome, and some 5.1% of all compounds hit somewhere here.

SMILES | gsp agonist | D2 ag | PINK1 expr mod | Menin MLL FP FL | ClpP mod | gsp antag | Sfp PPTase inh
CCCCn1nnc(N(C(=O)c2cccs2)C(=O)c2cccs2)n1 | 2% | -3.3 | 2.1% | 1.6 | 1.3% | 16% | ?
CC(C)(C)c1csc(NC(=O)c2ccccc2O)n1 | -4%[15.4 µM] | 1.2 | 28µM* | -4.8 | -2.0% | -23% | 1%
O=C(Nc1ccc(F)cc1)NC1(C(=O)NCc2ccc3c(c2)OCO3)CCCCC1 | -11% | -0.7 | -1.0% | 2.8 | 1.5% | -2% | 22%
CC(C)C[C@H]1CN([C@@H](Cc2ccc(O)cc2)CN2CCC[C@@H]2CN2C(=O)C(=O)NC[C@@H]2Cc2ccccc2)C(=O)C(=O)N1CC1CCCCC1 | . | -1.4 | 0.6% | . | 0.3% | -20% | .
COC(=O)c1ccc(NC(=O)Nc2ccc3c(c2)OCO3)cc1 | ? | -1.3 | 1.0% | 1.0 | -1.5% | 1% | -1%
OC(C#CCCN1CCCCC1)(c1ccccc1)C1CCCCC1 (stereo unspecified) | 10%[15.4 µM] | 5.7 | 7.3% | 0.9 | -1.5% | 3% | 21%
CC(C)(C)NCC(O)COCc1ccc(Cl)cc1 (stereo unspecified) | -12% | -0.8 | -1.5% | -2.5 | 1.1% | 2% | 10%
Cc1ncc2c(n1)-c1cc(F)ccc1SC2 | 2%[15.4 µM] | 2.0 | 0.1% | 1.1 | . | 2% | 7%
CCN1CCN(c2ccc(S(=O)(=O)N3CCCCC3)cc2NC(=O)c2cccc(Cl)c2)CC1 | 5%[15.4 µM] | -2.8 | 3.3% | . | . | -6% | .
O=C(Nc1nccs1)c1ccc(COc2ccccc2Cl)o1 | 5%[15.4 µM] | -0.8 | 5.8% | 0.2 | 58% | -13% | -16%
C[C@H](CO)N1C[C@H](C)[C@H](CN(C)S(=O)(=O)c2cn(C)cn2)OCc2cnnn2CCCC1=O | ? | -1.7 | 0.3% | . | -8.7% | . | .
Cc1cc(C(=O)CSc2nnc(NCc3ccccc3)s2)c(C)n1C | -24% | -3.4 | 4.9% | -1.3 | -1.0% | 4% | 1%
O=S1(=O)CCC(NC(=S)Nc2ccc3ccccc3c2)C1 (stereo unspecified) | ? | 0.5 | 0.8% | 5.3 | . | -2% | -8%
CCOc1ccc(C(=O)NC2CCN(S(=O)(=O)c3ccccc3)CC2)cc1 | -3%[15.4 µM] | 10 | 4.3% | -3.7 | -1.2% | 4% | -9%
O=C(CCn1nc(-c2ccc(Cl)cc2)c2ccccc2c1=O)NCC1CCCO1 (stereo unspecified) | 20% | -2.4 | 0.0% | 3.3 | 1.0% | -22% | -8%
O=C(CN1C(=O)NC2(CCCC2)C1=O)Nc1cccc(Cl)c1 | 6% | -3.7 | -1.5% | 3.1 | . | -2% | 4%
CC(=O)NNc1nc(-c2ccccc2)cs1 | 1% | 4.0 | 3.1% | 5.1 | . | 12% | 20µM*
COc1ccc(C2C(C(=O)N3CCCCC3)CCC(=O)N2c2cc(OC)c(OC)c(OC)c2)cc1 (stereo unspecified) | 4% | -2.4 | -1.5% | 3.5 | 0.1% | 9% | 2%
Cc1csc(NC(=O)CSc2nnc(C)n2Cc2ccco2)n1 | 7% | -1.9 | 0.9% | -3.4 | 1.1% | 4% | 11%
C/C(=N/NC(=O)c1sc(NS(=O)(=O)c2ccccc2)nc1C)c1ccc(F)cc1 | 10% | 0.8 | 0.8% | 6.8 | -0.9% | 5% | -15%
CN(C)c1ccc(-c2noc(C3CCN(S(=O)(=O)c4cccc(Cl)c4)CC3)n2)cc1 | -48%[inhibitor] | -1.8 | -3.4%[38.3 µM] | 8.6 | 20µM* | 6% | 13%
NC(=O)c1ccsc1NC(=O)COC(=O)CCOc1ccccc1 | 16% | -0.5 | 2.3% | 0.7 | . | -1% | -13%
COc1cc2c(cc1OC)CN(C(=S)Nc1ccccc1)CC2 | -21% | 2.1 | 5.3%[38.3 µM] | 1.0 | 0.3% | -8% | -3%
Cc1nn(CC(=O)N2CCN(Cc3ccccc3)CC2)c(=O)c2ccccc12 | -9% | -2.7 | -2.1% | 1.3 | 0.5% | 0% | 12%
CCOC(=O)CC(=O)CSc1nc2c(cc1C#N)CCCCCC2 | -2% | -1.4 | 4.8%[38.3 µM] | 6.6 | 85% | -2% | -17%
CC(C)N1CC(C(=O)Nc2ccc(S(=O)(=O)N3CCCCC3)cc2)CC1=O (stereo unspecified) | 19%[15.4 µM] | -1.6 | 0.8% | 4.9 | . | -1% | 4%
CC1=C(C(=O)N(C(C)C)C(C)C)CC(CC(=O)NCc2cccc3ccccc23)C(=O)N1CCC1=CCCCC1 (stereo unspecified) | . | -7.3 | 26% | . | -1.8% | . | .
CCOC(=O)N/N=C(/c1ccccc1)C1CCCCC1 | -3%[15.4 µM] | 3.3 | 1.1% | 0.9 | . | 8% | 9%
COc1ccc(Oc2ncc3nc(CCc4ccccc4)c(=O)n(C4CC4)c3n2)cc1 | . | . | 0.1% | 2.4 | . | . | -8%
O=C(CN1CCN(c2ncc(C(F)(F)F)cc2Cl)CC1)Nc1ccc2c(c1)OCO2 | -8% | 0.7 | 2.8%[38.3 µM] | -0.4 | 1.2% | 4% | 14%
CCOC(=O)COc1ccc(S(=O)(=O)Nc2ccc3c(c2)OCO3)cc1 | -45%[inhibitor] | 0.7 | 13%[38.3 µM] | 4.2 | 0.5% | -21% | 4%
Cc1nc(NC(=O)CSc2nc(N)cc(N)n2)sc1C | 0% | 6.9 | 2.2% | -3.6 | . | 9% | 10%
CCCn1c(C)cc(/C=C(\C#N)C(=O)OCC(=O)Nc2ccc(OC)c(Cl)c2)c1C | -2% | -3.5 | 0.8% | 4.7 | 313% | 6% | ?
N/C(=N\OC(=O)COc1ccc(Br)cc1)c1cccc([N+](=O)[O-])c1 | -4%[15.4 µM] | -5.6 | 4.9% | 1.3 | -1.4% | 13% | 7%
O=C(O)c1cccc(-n2cccc2/C=C2/NC(=O)N(Cc3ccccc3F)C2=O)c1 | -23%[15.4 µM] | 2.4 | 1.0% | 14 | . | -34% | 50µM*
O=C(CN(c1cc(Cl)ccc1Cl)S(=O)(=O)c1ccccc1)N1CCOCC1 | 0% | -3.6 | 1.3% | . | 1.8% | -4% | 8%
O=C(O)c1ccc(N/N=C/c2ccc(-c3ccc(Cl)cc3Cl)o2)cc1 | 3% | -2.5 | ? | 5.8 | -4.7% | -25% | -9%
CC1ON=C(c2ccccn2)N(Cc2ccc(S(C)(=O)=O)cc2)C1=O (stereo unspecified) | . | 7.2 | 0.9% | . | -0.3% | . | .
O=C(NCCCN1CCOCC1)C1CCC(=O)N1C1CCCCC1 (stereo unspecified) | -29% | -1.0 | 8.3%[38.3 µM] | -0.8 | -4.8% | 0% | 5%
Cc1cc2cc(C)c3nnc(SCc4ccccn4)n3c2cc1C | ? | -3.3 | -1.5% | 5.0 | -4.3% | 3% | 6%
Cc1cc(=O)[nH]c(SCC(=O)Nc2ccc(S(=O)(=O)N3CCCCC3)cc2)n1 | -5% | -2.8 | . | -0.8 | 0.1% | -15% | 4%
CC(C)n1cnnc1SCC(=O)NNC(=O)COc1ccc(Cl)cc1 | 9% | -2.8 | 1.7% | . | -4.8% | -3% | .
CCC(C)(C(=O)NC1CCCCC1)N(Cc1ccco1)C(=O)c1ccc2c(c1)OCO2 (stereo unspecified) | -1% | -2.9 | -1.4% | -1.9 | 2.3% | 7% | 8%
COC(=O)C[C@@H]1C[C@@H]2c3cc(NS(=O)(=O)c4ccc(F)cc4)ccc3O[C@@H]2[C@H](CO)O1 | ? | -8.1 | 1.6% | . | 1.0% | . | .
CC(OC(=O)CN1C(=O)COc2ccccc21)C(=O)NCc1ccc(F)cc1 (stereo unspecified) | 0% | -2.6 | 2.5% | . | . | 5% | 17%
COc1ccc(C(=O)N(C)Cc2ccon2)cc1OC1CCN(C(C)C)CC1 | -5%[15.4 µM] | -2.1 | 2.7% | . | 2.4% | 21% | 16%
c1ccc(-c2cnc(CN3CCN(c4ccccc4)CC3)o2)cc1 | -4%[15.4 µM] | 0.5 | 2.3% | 6.7 | . | -1% | 12%
Nc1c(C(=O)NC2CCCCC2)nsc1C(=O)OCC(=O)NC1CCCCC1 | -32%[inhibitor] | -3.5 | 3.6% | -2.4 | 25µM* | -9% | 16%
CN(N=Nc1nc[nH]c1C(N)=O)C1CCCCC1 | . | 6.6 | 1.4% | . | -2.4% | . | .
CC(C)Oc1ccc(C2CC(=O)NC2=O)cc1 (stereo unspecified) | -7%[15.4 µM] | -6.2 | -0.2% | -3.8 | 0.1% | -5% | 3%
CCc1ccc(N/C(SC)=C(/C#N)C(N)=O)cc1 | 3% | -1.9 | -0.5%[38.3 µM] | 4.9 | -0.1% | -5% | 2%
CCOc1ccc(/C=C/C(=O)OCC(=O)c2ccccc2OC)cc1OC | -3%[15.4 µM] | 5.9 | 2.2% | . | ? | -6% | .
CC(Oc1ccc(Cl)cc1Cl)C(=O)NNC(=O)C(=O)N1CCCCC1 (stereo unspecified) | 12%[15.4 µM] | -1.3 | 2.0% | -0.5 | -0.3% | 4% | 9%
COc1ccc(-c2noc(COc3ccc4c(c3)OCO4)n2)cc1OC | 30% | 0.1 | 3.7% | 4.8 | 0.3% | -5% | 8%
O=S(=O)(NCc1cccc(C(F)(F)F)c1)NCc1ccccc1F | 1% | -2.1 | 3.9% | -2.3 | . | -3% | 7%
CC(C)(C)OC(=O)C[C@H]1C/C=C\C[C@@H](CC(=O)N(CCO)Cc2ccccc2)C(=O)N[C@H](C(C)(C)C)COC1=O | ? | -0.1 | -0.1% | . | 1.4% | 8% | .
